S aureus helic – inhibitors of S. aureus replicative helicase, primary screen, biochemical, fluorescence unwinding readout. 120,000 tested, 0.05% active. replicative DNA helicase (DnaC/DnaB), Staphylococcus aureus. AID 485395, 2010. purified S. aureus helicase, fluorescence unwinding assay; about half of the hits fall short of the stated cut. inhibition, %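 (tested at about 80 µM)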;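 active = both duplicates at 50% or more, or one of them with a favoured structure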;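 also: 0% = mean of negative control wells and 100% = mean of positive control wells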
MgrA DNA FP – S. aureus MgrA activity modulators, primary screen, biochemical, S. aureus Newman, fluorescence polarization | MgrA-DNA binding | 84,000 tested, 0.13% active | inhibition, %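 (about 10 µg/mL by stock and volumes)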 | AID 602314, 2012;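 active = above 50% in either of two replicates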;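 also: 0% = protein plus DNA without compound and 100% = DNA alone without protein; higher means less MgrA bound to DNA so lower polarization; one replicate is shown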
* = called active by the depositor; nt = not tested or not shown; & = joins results of further samples.

SMILES | S aureus helic | MgrA DNA FP
O=C(Nc1ccncc1)c1ccccc1 | nt | 1.3
COC(=O)CCc1n[nH]c(=S)[nH]c1=O | 17 | nt
O=C(NC1CCCC1)c1ccc(CS(=O)(=O)c2ccc(Cl)cc2)o1 | 22 | nt
Cn1sc(=O)c2ccccc21 | 1 | nt
O=C1CNC(=O)N1c1ccccc1 | 9 | nt
Fc1ccc(CNCc2ccccn2)cc1 | 1 | -3.7
COc1ccc(OC)c(C(=O)c2ccc(N)cc2)c1 | nt | -2.8
O=C(NC1CCCCC1)c1cccs1 | -6 | 0.9
NC(=O)c1ccc(OCC(=O)c2ccc3c(c2)OCCO3)cc1 | 12 | nt
Cc1ccc(NC(=S)Nc2ccc3nc(-c4ccco4)c(-c4ccco4)nc3c2)cc1 | 2 | 80*
Cc1ccc(-c2nc3ncccc3o2)cc1NC(=O)CC(C)C | 10 | nt
NCC(O)CN1CCN(Cc2ccccc2)CC1 (stereo unspecified) | 16 | -3.2
Cc1nc2ccc(C(=O)O)cc2s1 | -2 | -0.8
CCCC(=O)C1C(=O)CC(C)(C)C(c2cc(C)no2)C1=O (stereo unspecified) | 5 | nt
COc1ccc(N2C(=O)CC(N3CCSCC3)C2=O)cc1 (stereo unspecified) | nt | 2.0
Cc1c(C)c(C)c(CSC2=NCC(C)N2)c(C)c1C (stereo unspecified) | nt | -2.5
Brc1cnc(N2CCCCC2)nc1N1CCOCC1 | 11 | 2.0
O=C1C=CC(=O)N1c1ccc(Cl)cc1Br | nt | -3.7
CC(C)(CNC(=O)c1n[nH]c2ccccc12)N1CCCCC1 | 26 | nt
Cn1c(SCCCCN2C(=O)c3ccccc3C2=O)nnc1-c1ccccc1 | 6 | nt
O=C(CSc1n[nH]c(=O)n1-c1cccnc1)c1cc(-c2ccccc2)no1 | -16 | nt
CCOc1ccccc1C(=O)NCc1n[nH]c(=O)c2ccccc12 | 9 | nt
C=CCSc1nc(N)c2c(C)c(C(=O)O)sc2n1 | 7 | nt
CC1=C(C(=O)Nc2ccccn2)C(c2ccc(C)cc2)C2=C(CC(C)CC2=O)N1 (stereo unspecified) | 13 | -3.5
Cc1nc(N2CCCC2)[nH]c(=O)c1Cc1c(F)cccc1Cl | nt | 0.6
O=C(Nc1cccc(NC(=S)NC(=O)c2ccco2)c1)c1ccccc1 | 10 | -2.2
O=C(Nc1ccc(F)cc1)C1COc2ccccc2O1 (stereo unspecified) | nt | 0.1
N#Cc1c2c(c(Nc3ccccc3)n3c1nc1ccccc13)CCC2 | 9 | 2.3
COCCn1c(=NC(=O)CCc2ccccc2)sc2cc(NC(C)=O)ccc21 | 13 | nt
CC1CC(C)CN(CCCNc2cnnc3c(Cl)cccc23)C1 (stereo unspecified) | 11 | nt
Cc1cccc(Cn2nc(C)c(NC(=O)c3ccncc3)c2C)c1 | -11 | -1.0
Cc1ccc2cccc(OCC(=O)N3C(C)CCCC3C)c2n1 (stereo unspecified) | 18 | nt
CCNc1nc(NC2CC2)nc(N(C)C#N)n1 | 7 | -0.7
Cc1ccc(N(Cc2ccc(C(=O)O)cc2)S(C)(=O)=O)cc1C | 5 | -1.8
Nc1ccc2oc3ccccc3c2c1 | -20 | nt
Nc1cc(=O)nc(SCC(=O)Nc2ccccc2)n1-c1ccccc1 | 10 | nt
O=C(NC1CCCC1)c1ccc2ncsc2c1 | -8 | nt
CON(S(=O)(=O)c1ccccc1)S(=O)(=O)c1ccccc1 | -6 | -3.7
CN(CC(=O)NC1CCSc2ccccc21)S(=O)(=O)c1ccc(F)cc1 (stereo unspecified) | 29 | nt
Cc1c(C)c(C)c(C(=O)c2ccc([N+](=O)[O-])cc2)c(C)c1C | nt | 5.0
C=CCSc1ncc2c(=S)[nH]c(=S)[nH]c2n1 | nt | 9.2
COCc1nnc(NC(=O)c2ccc(S(=O)(=O)N(C)C3CCCCC3)cc2)o1 | -3 | nt
O=c1c2nnn(-c3cccc(Cl)c3)c2ncn1C/C=C/c1ccccc1 | -1 | nt
CC(C)CCN1CSC2=C(C#N)C(c3ccc(F)cc3)CC(=O)N2C1 (stereo unspecified) | 21 | nt
O=C(COc1ccc(-c2nnc(N3CCCCC3)c3ccccc23)cc1)N1CCCCC1 | -16 | -0.1
Cc1ccc2c(c1)c1c(n2CC(O)CNCc2ccccc2)C(=O)CCC1 (stereo unspecified) | 10 | nt
CCCC(=O)n1nc(NCc2ccccc2)nc1NCc1ccccc1 | -13 | 3.4
CCOC(=O)CCc1ccc(OCc2ccccc2)c(I)c1 | nt | -0.3
Cc1ccc(NC(=O)CSCc2c(C#N)c(C)nn2-c2ccccc2)c(Cl)c1 | -12 | nt
CNC(=O)N(Cc1cccnc1)Cc1cccc(Cl)c1Cl | -34 | nt

Record cards, from the list above.
CC(C)CCN1CSC2=C(C#N)C(c3ccc(F)cc3)CC(=O)N2C1 (stereo unspecified) is listed as S aureus helic = 21; MgrA DNA FP = nt
CNC(=O)N(Cc1cccnc1)Cc1cccc(Cl)c1Cl is listed as S aureus helic = -34; MgrA DNA FP = nt

Continued:
SMILES | S aureus helic | MgrA DNA FP
CCN(CC)C(=O)Cn1nc(C)c(S(=O)(=O)N2CCCCC2)c1C | -10 | nt
CCN1C(=O)/C(=C\c2ccc(C(C)C)cc2)SC1=S | 12 | 5.1
COC(=O)c1sccc1NC(=O)COCc1cc(-c2cccs2)on1 | -5 | nt
NC(N)=NS(=O)(=O)c1ccc(N)cc1 | nt | 5.8&0.8
Cc1nnc(SCC(=O)NCC2CCCCC2)n(N)c1=O | -1 | nt
O=c1oc2ccc(Br)cc2cc1-c1ccc2c(c1)OCCO2 | -17 | nt
COc1ccccc1OCc1ccc(C(=O)NCC(C)C)o1 | 4 | -0.6
NC(=S)N/N=C/CCn1c(=S)sc2ccccc21 | -2 | 0.8
CCn1cc(S(=O)(=O)Nc2cc(C(C)(C)C)on2)cn1 | 6 | -2.1
C/C(=N\NC(=O)c1ccc(Cl)cc1Cl)c1ccc(C)o1 | 10 | nt
Cc1ccccc1C(=O)Nc1cc(C)c2c(=O)oc3ccccc3c2n1 | 13 | 4.1
CN(C)c1ccc(C(=O)OCC(=O)C23CC4CC(CC(C4)C2)C3)cc1 | -1 | nt
CCCC(=O)Nc1nc2ccc(S(=O)(=O)N3CCCCC3)cc2s1 | -21 | nt
N#Cc1c(N)sc2c1CCC2 | nt | 7.6
CN(C(=O)c1cnccn1)c1c(N)n(Cc2ccccc2)c(=O)[nH]c1=O | 4 | nt
CC(C)(C)OC(=O)N1CCc2nc(Nc3ccccc3)ncc2C1 | 21 | nt
N#Cc1c(NC(=O)c2cnn3c(C(F)(F)F)cc(-c4ccco4)nc23)sc2c1CCCC2 | 3 | 8.0
CC(C)(C)n1nc2c(c1N)CSC2 | 2 | nt
CCCCN1C(=O)N(c2nnc(C(C)(C)C)s2)C(O)C1c1ccc(C)cc1 (stereo unspecified) | 8 | nt
Cc1cc(NC(=O)/C(C#N)=C/c2ccc(-c3cccc(C(F)(F)F)c3)o2)n(-c2ccccc2)n1 | -50 | nt
CCOC(=O)C1=C(C)OC(N)=C(C#N)C1c1cccnc1 (stereo unspecified) | 3 | nt
Cc1cc(C(=O)Cn2nnc(-c3cccc(F)c3)n2)c(C)n1C1CCS(=O)(=O)C1 (stereo unspecified) | -4 | nt
COC(=O)CC(c1ccc(O)cc1)N1Cc2ccccc2C1=O (stereo unspecified) | nt | -1.4
O=C(Nc1cccc(C(F)(F)F)c1)C(SCCO)c1ccccc1 (stereo unspecified) | 4 | -0.9
CCCn1c(Sc2nnnn2-c2ccccc2)nc2ccccc2c1=O | 4 | nt
O=C(NCCO)c1c(Cl)cccc1Cl | -4 | 0.9
COc1ccc(Br)cc1C(=O)CCC(=O)O | -19 | 0.5
CCCC(NS(=O)(=O)c1ccc(C)cc1)C(=O)O (stereo unspecified) | 18 | nt
O=C(O)c1ccc(OCc2cn3ccccc3n2)cc1 | 11 | nt
CNc1nc(OCC#N)nc(N2CCCCC2)n1 | 0 | 2.8
CCC1SC2=NCCN2C1(O)c1ccc(Cl)cc1 (stereo unspecified) | 13 | -3.6
O=C(Nc1c2c(nn1-c1ccc(Cl)cc1)CSC2)c1ccc(C(=O)c2ccccc2)cc1 | 16 | 1.8
COc1cc(OC)c(OC)cc1Br | nt | -1.4
CCOc1ccc(NC(=O)C2CCCN(S(=O)(=O)c3c(C)[nH]c(=O)[nH]c3=O)C2)cc1 (stereo unspecified) | 26 | nt
O=C(CCN1C(=O)NC2(CCCC2)C1=O)Nc1nc(-c2ccccc2)cs1 | -3 | nt
CCn1c(C(C)NC=O)nc2ccccc21 (stereo unspecified) | 4 | -0.8
CN(C)CCOC(=O)c1ccc2[nH]c3c(c2c1)CSCC3 | 27 | 12
CN1CCN(S(=O)(=O)c2cccc3cccnc23)CC1 | 4 | -1.2
Cc1ccc(/C=C(\C#N)C(=O)NC2CCCCCC2)o1 | 3 | 3.8
COc1ccc(CCN(/C=C2/Sc3ccccc3C2=O)C(C)=O)cc1OC | nt | 0.3

In the list so far, these contain a CF3 group:
SMILES | S aureus helic | MgrA DNA FP
N#Cc1c(NC(=O)c2cnn3c(C(F)(F)F)cc(-c4ccco4)nc23)sc2c1CCCC2 | 3 | 8.0
Cc1cc(NC(=O)/C(C#N)=C/c2ccc(-c3cccc(C(F)(F)F)c3)o2)n(-c2ccccc2)n1 | -50 | nt
O=C(Nc1cccc(C(F)(F)F)c1)C(SCCO)c1ccccc1 (stereo unspecified) | 4 | -0.9

Continued:
SMILES | S aureus helic | MgrA DNA FP
O=C1CCCN1c1ccc(S(=O)(=O)Nc2ccc(Cc3ccncc3)cc2)cc1 | 5 | -0.4
O=c1sc(Nc2ccccc2)nc2ccccc12 | 4 | -1.1
Cc1ccc(N2NC(=O)/C(=C/C=C/c3ccco3)C2=O)cc1C | 15 | 0.1
CCCc1nn(S(=O)(=O)c2ccc(F)cc2F)cc1C(=O)OCC | nt | -3.1
CSc1ccccc1C(=O)NCCN1CCOCC1 | 15 | -1.9
CC(C)(C)NC(=O)N1CCN(c2nc(-c3ccccc3)ns2)CC1 | nt | -2.2
CCOc1ccc(C(=O)N2CCCC2)cc1 | -13 | -0.6
FC(F)(F)c1ccc2cccc(C(F)(F)F)c2n1 | nt | -2.2
N#Cc1nc(-c2ccccc2)oc1NCc1ccco1 | 6 | 1.2
COc1ccc(-n2c(C)cc(C(=O)COC(=O)Cn3cnc4ccccc43)c2C)cc1 | 11 | nt
Cc1ccc(S(=O)(=O)N(C)/N=C/c2cccc(Br)c2)cc1 | 10 | 0.7
COC(=O)c1c(CSC(=N)N)nc2n(Cc3ccccc3)c3ccccc3n12 | 8 | -7.0
O=C1/C(=C/c2cccs2)N2CCC1CC2 | nt | 0.1
O=C(CCc1nnc2n(Cc3ccc(F)cc3)c(=O)c3ccccc3n12)NC1CCCCCC1 | 3 | 0.0
CCOC(=O)c1cccc(NC(=O)CNC(=O)C2CCCCC2)c1 | -13 | 3.5
CS(=O)(=O)N(CC(=O)Nc1ccc(S(=O)(=O)N2CCCC2)cc1)c1ccc2c(c1)OCO2 | -1 | 0.2
COc1ccc(-c2cn3cc(Cl)ccc3n2)cc1 | nt | -3.1
Clc1ncc(CN2CCCc3ccccc32)s1 | nt | 2.0
O=C(O)CCc1nc2cc(Cl)ccc2n(Cc2ccccc2)c1=O | 9 | 1.4
c1ccc(N=c2scc(-c3cccs3)n2-c2ccccc2)cc1 | 5 | -1.6
Cc1ccc(C(CN2CCOCC2)c2nc(-c3ccccc3)nn(CN3CCOCC3)c2=O)cc1 (stereo unspecified) | 14 | nt
O=C(Nc1c(C(=O)N2CCCCC2)cnn1-c1ccccc1)c1ccccc1 | 8 | -1.7
O=C(CSC1=NCCCCC1)c1ccccc1 | nt | -9.9
O=C(Nc1ccccc1)N(O)c1ccc(Cl)cc1 | 3 | 0.2
Clc1cccc(Oc2ncnc3sccc23)c1Cl | -28 | 3.3
CC1(C(=O)O)CC2C=CC1C2 (stereo unspecified) | nt | -4.5
Cc1cc(NC(=O)CSCc2ccco2)no1 | 5 | nt
CN(C)CC#Cc1cncc(C(=O)NN)c1 | nt | 0.8
COc1ccc(CC(=O)Nc2nc(-c3ccccc3)cs2)cc1 | -21 | 1.3
O=C(c1ccccc1)c1c(CS(=O)(=O)c2ccc(C(F)(F)F)cn2)[nH]n(-c2ccccc2)c1=O | nt | 4.8
Clc1ccc(Nc2nc(C3CC3)cs2)cc1 | 7 | nt
CN1c2ccccc2N(Cc2ccccc2)C(=O)C1(C)C | 2 | -2.3
COc1ccc(-c2ccnc(SCC(=O)NCCSCc3ccco3)n2)cc1 | nt | 1.6
C[N+]1(Cc2ccco2)Cc2ccccc2C1 | 1 | 0.6
O=C(C1CCCN(S(=O)(=O)c2ccccc2)C1)N1CCCCC1 (stereo unspecified) | -3 | 0.7
COC(=O)c1cc(=O)n(C)c(=Nc2ccc(F)cc2)s1 | 8 | 0.4
Cc1c2oc3c(c2cc2c4c(c(=O)oc12)CCCC4)CCCC3 | -11 | nt
CCOC(=O)C1CCN(C(=O)c2ccccc2F)CC1 | 15 | -4.5
CC(=O)Nc1ccc(NC(=O)C(C)OC(=O)C2CC(=O)N(CCc3ccccc3)C2)cc1 (stereo unspecified) | 17 | nt
CS(=O)(=NS(=O)(=O)c1cccc2nsnc12)c1ccccc1 (stereo unspecified) | nt | 1.5
O=C(NCCSc1c[nH]c2ccccc12)C1CC1 | -22 | nt
c1ccc(-n2nc3ccc4nonc4c3n2)cc1 | 1 | 2.0

Laid out differently: results already given.
Every second line gives: S aureus helic	MgrA DNA FP
> COc1ccc(-c2ccnc(SCC(=O)NCCSCc3ccco3)n2)cc1
  nt	1.6
> C[N+]1(Cc2ccco2)Cc2ccccc2C1
  1	0.6
> O=C(C1CCCN(S(=O)(=O)c2ccccc2)C1)N1CCCCC1 (stereo unspecified)
  -3	0.7
> COC(=O)c1cc(=O)n(C)c(=Nc2ccc(F)cc2)s1
  8	0.4

Not all compounds are listed. The share of hits here may be higher or lower than overall.
